FGF22 binding – FGF22 (human) thermal shift binding; Q9HCT0; 1.5% of 340,000 active; AID 651658; recombinant FGF22 thermal shift, SYPRO orange fluorescence; percent of sucrose octasulfate shift, DMSO zero; calls only at 9.99 µM;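 active = melting point raised past a set limit in the mean and every replicate; three in four hits are not shown here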
Target sequence (Q9HCT0 whole entry, looked up): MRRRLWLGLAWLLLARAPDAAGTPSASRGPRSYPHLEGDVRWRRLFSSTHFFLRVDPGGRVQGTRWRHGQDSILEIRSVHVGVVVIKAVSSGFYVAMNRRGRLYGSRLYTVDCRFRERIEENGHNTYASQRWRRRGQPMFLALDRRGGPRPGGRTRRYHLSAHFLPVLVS
Calls only; i = inactive. Some of the compounds tested (hit frequency here may not be typical).

The first 4 records, to show the layout:
SMILES	FGF22 binding
CN1c2ccc(-c3cccc(F)c3)cc2[C@@H]2[C@@H](CCN2S(=O)(=O)c2cccc(F)c2)[C@@H]1CO	i
C[C@@H]1CN([C@@H](C)CO)C(=O)c2cc(NS(=O)(=O)c3cccs3)ccc2O[C@@H](C)CCCCO[C@H]1CN(C)Cc1ccc2c(c1)OCO2	i
Cc1noc(C)c1NC(=O)N(C)C[C@@H]1Oc2ccc(NC(=O)Nc3ccc(C(F)(F)F)cc3)cc2CC(=O)N([C@@H](C)CO)C[C@@H]1C	i
O=C1CC2c3cc(Br)ccc3CCN2C(=O)CN1Cc1ccccc1 (stereo not drawn)	i

All compounds of this part, previewed entries included:
SMILES	FGF22 binding
CN1c2ccc(-c3cccc(F)c3)cc2[C@@H]2[C@@H](CCN2S(=O)(=O)c2cccc(F)c2)[C@@H]1CO	i
C[C@@H]1CN([C@@H](C)CO)C(=O)c2cc(NS(=O)(=O)c3cccs3)ccc2O[C@@H](C)CCCCO[C@H]1CN(C)Cc1ccc2c(c1)OCO2	i
Cc1noc(C)c1NC(=O)N(C)C[C@@H]1Oc2ccc(NC(=O)Nc3ccc(C(F)(F)F)cc3)cc2CC(=O)N([C@@H](C)CO)C[C@@H]1C	i
O=C1CC2c3cc(Br)ccc3CCN2C(=O)CN1Cc1ccccc1 (stereo not drawn)	i
C#CCN(Cc1ccco1)C(=O)c1nnc2c3cc(OC)ccc3n(S(=O)(=O)c3ccc(OC)cc3)c2n1	i
COCC(=O)Nc1ccc2c(c1)[C@H]1C[C@@H](CC(=O)NCc3ccccn3)O[C@@H](CO)[C@H]1O2	i
C[C@@H]1CN([C@H](C)CO)C(=O)c2cccc(NS(C)(=O)=O)c2O[C@H]1CN(C)Cc1ccc(C(=O)O)cc1	i
Cn1cnc(S(=O)(=O)N[C@@H]2C=C[C@@H](CC(=O)N3CCN(c4ccccc4)CC3)O[C@H]2CO)c1	i
COc1cccc(-c2ccc3n(c2=O)C[C@H]2[C@H](CO)[C@@H](C(=O)NC4Cc5ccccc5C4)N[C@@H]32)c1	i
C[C@@H]1CCCCO[C@@H](CN(C)CC2CCCCC2)[C@H](C)CN([C@H](C)CO)C(=O)c2cc(NC(=O)CCCCCC(=O)Nc3ccccc3N)ccc2O1	i
C[C@H](CO)N1C[C@H](C)[C@H](CN(C)C(=O)NC2CCCCC2)Oc2ccc(NS(=O)(=O)c3ccccc3)cc2CC1=O	i
C[C@@H]1CN([C@H](C)CO)C(=O)c2cccc(NC(=O)C3CC3)c2O[C@@H]1CN(C)CC1CC1	i
Cc1noc(C)c1NC(=O)Nc1ccc2c(c1)CC(=O)N([C@@H](C)CO)C[C@H](C)[C@@H](CN(C)Cc1ccccc1)O2	i
CO[C@@H]1CN(C)C(=O)c2ccc(NS(=O)(=O)c3ccc(Cl)cc3)cc2OC[C@@H](C)N(C(=O)NC(C)C)C[C@@H]1C	i
COc1ccc(-c2ccc([C@H]3[C@H](C#N)N(C(=O)NC4CCCC4)[C@H]3CO)cc2)cc1	i
O=C(C[C@@H]1C[C@H]2c3cc(NC(=O)C4CCC4)ccc3O[C@H]2[C@H](CO)O1)NC1CCCC1	i
COc1cccc(NC(=O)N(C)C[C@@H]2Oc3ncc(C4=CCCCC4)cc3C(=O)N([C@@H](C)CO)C[C@@H]2C)c1	i
COc1ccc(CNC(=O)N(C)C[C@H]2OCc3ccccc3-c3c(n(C)c4ccccc34)C(=O)N([C@@H](C)CO)C[C@@H]2C)cc1	i
CC(=O)N[C@@H]1CC[C@@H](CCNC(=O)C2CC2)O[C@@H]1CO	i
Cc1noc(C)c1NC(=O)Nc1ccc2c(c1)CC(=O)N([C@@H](C)CO)C[C@@H](C)[C@@H](CN(C)Cc1ccncc1)O2	i
CN(C)C(=O)[C@@H]1[C@@H](CO)[C@@H]2Cn3c(cccc3=O)[C@H]1N2CC1CCCCC1	i
COc1ccccc1-c1ccc2c(c1)O[C@@H](CN(C)C(=O)c1cccnc1)[C@H](C)CN([C@@H](C)CO)S2(=O)=O	i
COCC(=O)Nc1ccc2c(c1)C(=O)N(C)C[C@@H](OC)[C@@H](C)CN(C(=O)c1ccccc1F)[C@H](C)CO2	i
C[C@@H]1CN([C@H](C)CO)C(=O)c2cc(-c3cncnc3)cnc2O[C@H]1CN(C)Cc1cncnc1	i
O=C(c1cccc(F)c1)N1CC(=O)N2[C@H](CO)[C@H](c3ccc(C4=CCCCC4)cc3)[C@@H]2C1	i
COc1ccc(S(=O)(=O)N(C)C[C@@H]2Oc3ccc(NS(=O)(=O)c4c(C)noc4C)cc3CC(=O)N([C@@H](C)CO)C[C@@H]2C)cc1	i
COc1ccc(NC(=O)N(C)C[C@@H]2Oc3ccc(NC(=O)C4CCCCC4)cc3CC(=O)N([C@@H](C)CO)C[C@@H]2C)cc1	i
COCC#Cc1ccc2c(c1)O[C@H](CN(C)CC1CCOCC1)[C@H](C)CN([C@H](C)CO)S2(=O)=O	i
C[C@H]1CN([C@@H](C)CO)C(=O)c2cccc(NC(=O)Nc3cccc4ccccc34)c2O[C@H]1CN(C)C(=O)Nc1ccc2c(c1)OCO2	i
C[C@@H]1CN([C@H](C)CO)C(=O)c2ccccc2-c2ccccc2CO[C@@H]1CN(C)C(=O)[C@@H]1CCCN1C	i
C[C@H](CO)N1C[C@H](C)[C@H](CN(C)C)Oc2ncc(-c3cccc(F)c3)cc2C1=O	i
O=C(NCC[C@@H]1CC[C@@H](NC(=O)C2CCCCC2)[C@H](CO)O1)Nc1ccc(Cl)cc1	i
C[C@H]1CN([C@@H](C)CO)C(=O)c2cc(NC(=O)C3CCCCC3)ccc2O[C@H]1CN(C)C(=O)Nc1ccc(F)cc1	i
C[C@@H]1CN([C@H](C)CO)C(=O)Cc2cc(NS(C)(=O)=O)ccc2O[C@H]1CN(C)Cc1ccc(C(F)(F)F)cc1	i
C[C@H]1CN([C@@H](C)CO)C(=O)c2cc(C3=CCCCC3)cnc2O[C@H]1CN(C)C(=O)NC1CCCC1	i
N#Cc1ccc(-c2ccc3c(c2)[C@H]2[C@H](CCN2Cc2ccc4c(c2)OCO4)[C@H](CO)N3)cc1	i
CO[C@@H]1CN(C)C(=O)c2cc(NC(=O)CC(F)(F)F)ccc2OC[C@H](C)N(C(=O)C2CCOCC2)C[C@H]1C	i
C[C@H](CO)N1C[C@H](C)[C@H](CN(C)Cc2ccccc2)Oc2ncc(-c3cncnc3)cc2C1=O	i
COCC(=O)N1[C@H](CO)[C@@H](c2ccccc2)C12CN(C(=O)c1ccccc1)C2	i
CO[C@H]1CN(C)C(=O)c2ccc(NC(=O)Cc3ccccc3)cc2OC[C@H](C)NC[C@H]1C	i

Reprinted at random: six compounds from above.
SMILES	FGF22 binding
C[C@@H]1CN([C@H](C)CO)C(=O)c2ccccc2-c2ccccc2CO[C@@H]1CN(C)C(=O)[C@@H]1CCCN1C	i
C[C@@H]1CCCCO[C@@H](CN(C)CC2CCCCC2)[C@H](C)CN([C@H](C)CO)C(=O)c2cc(NC(=O)CCCCCC(=O)Nc3ccccc3N)ccc2O1	i
COc1ccccc1-c1ccc2c(c1)O[C@@H](CN(C)C(=O)c1cccnc1)[C@H](C)CN([C@@H](C)CO)S2(=O)=O	i
CO[C@@H]1CN(C)C(=O)c2ccc(NS(=O)(=O)c3ccc(Cl)cc3)cc2OC[C@@H](C)N(C(=O)NC(C)C)C[C@@H]1C	i
C[C@H](CO)N1C[C@H](C)[C@H](CN(C)C(=O)NC2CCCCC2)Oc2ccc(NS(=O)(=O)c3ccccc3)cc2CC1=O	i
COCC(=O)N1[C@H](CO)[C@@H](c2ccccc2)C12CN(C(=O)c1ccccc1)C2	i

(list continues)
SMILES	FGF22 binding
Cc1ccc(S(=O)(=O)N[C@H]2CC[C@H](CC(=O)NCc3ccncn3)O[C@@H]2CO)cc1	i
Cc1ccc(S(=O)(=O)N(C)C[C@@H]2OCCCC[C@@H](C)Oc3ccc(NC(=O)Nc4ccccc4)cc3C(=O)N([C@@H](C)CO)C[C@H]2C)cc1	i
C[C@@H]1CN([C@H](C)CO)C(=O)c2cccc(NC(=O)C3CC3)c2O[C@H]1CN(C)C(=O)Nc1ccc2c(c1)OCO2	i
COc1ccc(S(=O)(=O)N(C)C[C@H]2Oc3ccc(NC(=O)C4CC4)cc3CC(=O)N([C@@H](C)CO)C[C@@H]2C)cc1	i
COc1ccc(NC(=O)N(C)C[C@@H]2OCCCC[C@H](C)Oc3ccc(NC(=O)CCCN(C)C)cc3C(=O)N([C@H](C)CO)C[C@@H]2C)cc1	i
C[C@@H]1CN([C@H](C)CO)S(=O)(=O)c2ccc(-c3cccc(F)c3)cc2O[C@@H]1CN(C)CC1CC1	i
COc1ccc(S(=O)(=O)Nc2ccc3c(c2)C(=O)N([C@H](C)CO)C[C@@H](C)[C@H](CN(C)C)OCCCC[C@@H](C)O3)cc1	i
C[C@H]1CN([C@@H](C)CO)C(=O)c2cc(NC(=O)Nc3ccc4c(c3)OCO4)ccc2O[C@@H]1CN(C)C(=O)NC1CCCCC1	i
COc1ccccc1CNC(=O)C[C@H]1CC[C@H]2[C@@H](COC[C@@H](O)CN2C(=O)Nc2ccc(Cl)cc2)O1	i
C[C@H]1CCCCO[C@@H](CN(C)C(=O)NC2CCCCC2)[C@@H](C)CN([C@@H](C)CO)C(=O)c2cc(NS(=O)(=O)c3ccc(Cl)cc3)ccc2O1	i
Cc1ccc(S(=O)(=O)Nc2ccc3c(c2)C(=O)N([C@@H](C)CO)C[C@H](C)[C@@H](CN(C)Cc2ccc4c(c2)OCO4)O3)cc1	i
C[C@@H]1CN([C@H](C)CO)C(=O)c2cc(NC(=O)Nc3ccccc3)ccc2O[C@H]1CN(C)S(C)(=O)=O	i
CCCNC(=O)N(C)C[C@@H]1Oc2ncc(C#CCC(C)C)cc2C(=O)N([C@@H](C)CO)C[C@@H]1C	i
CO[C@H]1CN(C)C(=O)c2ccc(NC(=O)c3ccccc3F)cc2OC[C@H](C)N(C(=O)c2ccccc2F)C[C@@H]1C	i
O=C(N[C@@H]1CC[C@@H](CCNS(=O)(=O)Cc2ccccc2)O[C@@H]1CO)c1ccccc1F	i
COC(=O)c1ccc([C@H]2C=C(C(=O)N3CCN(Cc4ccc5c(c4)OCO5)CC3)O[C@@H](OCc3ccc(CO)cc3)C2)cc1	i
Cc1cc(C(=O)Nc2cccc3c2O[C@@H](CN(C)CC2CC2)[C@@H](C)CN([C@H](C)CO)C3=O)n(C)n1	i
CNC[C@@H]1Oc2cc(C#Cc3ccc(F)cc3)ccc2S(=O)(=O)N([C@@H](C)CO)C[C@H]1C	i
COc1ccc(NC(=O)Nc2ccc3c(c2)C(=O)N([C@@H](C)CO)C[C@@H](C)[C@@H](CN(C)Cc2ccc(Cl)c(Cl)c2)OCCCC[C@@H](C)O3)cc1	i
CC(C)(O)C#Cc1ccc([C@H]2[C@@H](CO)N3CCCCN(C(=O)c4cccc(F)c4)C[C@@H]23)cc1	i
C[C@@H]1CCCCO[C@@H](CN(C)S(=O)(=O)c2cn(C)cn2)[C@H](C)CN([C@@H](C)CO)C(=O)c2cc(NS(=O)(=O)c3ccccc3)ccc2O1	i
Cc1noc(C)c1NC(=O)N(C)C[C@H]1OCCCC[C@@H](C)Oc2ccc(NS(=O)(=O)c3c(C)noc3C)cc2C(=O)N([C@H](C)CO)C[C@@H]1C	i
C[C@@H]1CN([C@H](C)CO)C(=O)c2cc(NC(=O)c3ccccc3)ccc2O[C@@H](C)CCCCO[C@H]1CN(C)Cc1ccccc1	i
CC(C)CC#Cc1ccc([C@@H]2[C@@H](CO)N3CCCCN(C(=O)c4ccc5c(c4)OCO5)C[C@H]23)cc1	i
COCC(=O)N1[C@H](CO)[C@H](c2ccccc2-c2ccccc2)[C@@H]1C#N	i
C[C@H](CO)N1C[C@H](C)[C@@H](CN(C)C(=O)Nc2ccccc2)OCCCC[C@H](C)Oc2ccc(NC(=O)C3CCCCC3)cc2C1=O	i
CC(=O)N1[C@H](C(=O)NCC2CC2)[C@@H](CO)[C@@H]2Cn3c(ccc(-c4cccc(F)c4)c3=O)[C@@H]21	i
Cc1noc(C)c1S(=O)(=O)Nc1cccc2c1O[C@H](CN(C)Cc1ccc(C(=O)O)cc1)[C@@H](C)CN([C@@H](C)CO)C2=O	i
O=C(c1ccncc1)N1C[C@@H]2[C@H](c3ccccc31)[C@@H](CO)N2Cc1ccc(F)cc1	i
CO[C@@H]1CN(C)C(=O)c2cc(NC(=O)NC(C)C)ccc2OC[C@H](C)N(C(=O)C2CCC2)C[C@@H]1C	i
C[C@@H]1CN([C@H](C)CO)S(=O)(=O)c2ccc(C#Cc3ccccc3)cc2O[C@H]1CN(C)S(=O)(=O)c1cn(C)cn1	i
O=S(=O)(Cc1ccccc1)N1CCCCN2[C@H](CO)[C@H](c3ccc(-c4ccncc4)cc3)[C@@H]2C1	i
O=C(C1CCOCC1)N1[C@@H]2CNc3ccccc3[C@@H]2[C@@H]1CO	i
C[C@@H]1CCCCO[C@@H](CN(C)S(=O)(=O)c2ccc(Cl)cc2)[C@H](C)CN([C@H](C)CO)C(=O)c2cc(NS(=O)(=O)c3ccccc3)ccc2O1	i
Cc1noc(C)c1NC(=O)Nc1cccc2c1O[C@H](CN(C)C)[C@H](C)CN([C@H](C)CO)C2=O	i
C[C@@H]1CN([C@@H](C)CO)C(=O)Cc2cc(NC(=O)Cc3cn(C)c4ccccc34)ccc2O[C@H]1CN(C)C(=O)Nc1ccc(F)cc1	i
N#C[C@H]1[C@@H](c2ccccc2C2=CCCC2)[C@@H](CO)N1C(=O)C1CC1	i
COCC(=O)N1CC2(C1)[C@H](c1ccccc1)[C@@H](CO)N2C(=O)c1cccnc1	i
C[C@@H]1CCCCO[C@@H](CN(C)C(=O)c2ccccc2)[C@H](C)CN([C@H](C)CO)C(=O)c2cc(NC(=O)C3CCCCC3)ccc2O1	i
CN(C)C(=O)c1ccc(-c2ccc3c(c2)[C@H]2[C@H](CCN2C(=O)C2CC2)[C@@H](CO)N3C)cc1	i
C[C@@H]1CN([C@@H](C)CO)C(=O)c2cc(C#Cc3ccccc3F)cnc2O[C@@H]1CN(C)C(=O)Cc1ccccc1	i
C[C@H]1CN([C@@H](C)CO)C(=O)c2ccccc2-c2ccccc2CO[C@@H]1CN(C)S(=O)(=O)c1ccc(F)cc1	i

Screening results from PubChem.
